# Screens (PubChem)
# Vaccinia mCherry – qHTS for Stage-Specific Inhibitors of Vaccinia Orthopoxvirus: mCherry Reporter Primary qHTS | AID 720579, 2013 | Vaccinia virus mCherry reporter infection, fluorescence; about a quarter of the inactives have no number | Potency, µM (doses to about 36.5 µM), for inactives: at the highest dose activity change, negative = inhibition, most hits filed as inhibitors | hit rate 0.63% among 310,000; active = well fitted inhibition curve with a large enough effect; inconclusive = small, poorly fitted or top-dose-only effect; inactive = no such curve, though single readings can be large or run the other way; tested in A549 cells; note: nearly all actives have a fitted effect of over 35% in size; inactives centre near -10
# VACV Venus inh – qHTS for Stage-Specific Inhibitors of Vaccinia Orthopoxvirus: Venus Reporter Primary qHTS; Potency, µM (highest dose often 36.5 µM), without a hit: at the highest dose activity change, negative = inhibition, hits mostly inhibitors; hit rate 0.46% among 330,000; Vaccinia virus Venus reporter expression, fluorescence; active means well fitted inhibition curve with a large enough effect; inconclusive means small, poorly fitted or top-dose-only effect; inactive means no such curve, though single readings can be large or run the other way; tested in A549 cells; note: nearly all actives have a fitted effect of over 30% in size; inactives centre near -10
# Starred values were filed as active, the others as inactive; i = inactive; ? = inconclusive; . = no result given; & = joins results of further samples; [ ] = another dose, or the depositor's remark. % is set by controls: 0 for no effect and ±100 for the full control effect; potency is the fitted concentration of half-maximal effect. No enrichment for hits; overall some 0.86% were active at least once.
Structure | Vaccinia mCherry | VACV Venus inh
COc1ccc(S(=O)(=O)N2CCC(C(=O)N3CCN(C)CC3)CC2)cc1Cl | i | -16%
Cc1c(NC(=O)Nc2ccc3c(c2)OCO3)cccc1[N+](=O)[O-] | ? | -19%
Cc1cc(Br)ccc1NC(=O)C1C2CCC(O2)C1C(=O)O (configuration not stated) | -3% | -12%
CCCCn1c(N)c(N(Cc2ccccc2OC)C(=O)C(C)Oc2cccc(Cl)c2)c(=O)[nH]c1=O (configuration not stated) | 0% | -2%
Cc1ccccc1Oc1nc2ccccc2n2cnnc12 | i | -10%
Cc1cc(C(C)(C)C)ccc1OCCN1CCCC1 | -10% | -10%
COc1ccc(-c2ccc(SCC(=O)Nc3nnc(C)s3)nn2)cc1 | -7% | -16%
CCCCCC(=O)NCC(C)NC(=O)CCCCC (configuration not stated) | -1% | -11%
COc1ccc(-c2nc3ccccc3o2)cc1NC(=O)CSc1ccc(Cl)cc1 | -27%&-12% | -24%&-3%
Cn1cc(CN2CCC(n3nccc3NC(=O)CCc3ccccc3)CC2)cn1 | -6% | -18%
CCSc1nc2c(cnn2-c2ccccc2)c(=O)n1N | i | -15%
CC(C)(C)OC(=O)N1CCC(c2c(C(=O)NC3CCCCC3)cnn2-c2ccc(F)cc2F)CC1 | -17% | -11%
CC1Cc2cc(S(=O)(=O)CCC(=O)Nc3ccc(F)cc3Cl)ccc2N1C(=O)C1CC1 (configuration not stated) | -8% | -8%
CCn1c2ccccc2c2cc(NS(=O)(=O)c3ccc(C)cc3)ccc21 | . | ?
CN(CC(=O)Nc1cccc(F)c1)C(=O)Cn1c(=O)cnc2ccccc21 | -5% | -20%
CC(NC(=O)Nc1cc(Cl)ccc1Cl)c1c(-n2cccc2)sc2c1CCCC2 (configuration not stated) | 0% | -12%
c1ccc(Nc2ccc3ccccc3c2)cc1 | 2% | -9%
COc1ccccc1CN1CCC(CNC(=O)c2cnn(-c3cccc(Cl)c3)c2C2CCN(C(=O)OC(C)(C)C)CC2)CC1 | ? | ?
N#Cc1cccn1-c1nccs1 | -3% | -4%
O=C(NCC(c1cccnc1)N1CCc2ccccc2C1)C(=O)Nc1ccc(Cl)cc1 (configuration not stated) | -21% | -29%
CN1/C(=C/c2cc[n+](C)c3ccccc23)C=Cc2ccccc21 | ? | ?
CC(=O)NN1C(=O)/C(=C/c2ccc(C(C)C)cc2)SC1=S | -17% | -1%
O=C(COC(=O)/C=C/c1ccccc1[N+](=O)[O-])NC(=O)NC1CCCC1 | -9% | -5%
O=C(O)c1ccc(-c2nc3ccccc3[nH]2)cc1 | -12% | -2%
COc1cc([N+](=O)[O-])ccc1NC(=O)CN(C)C | i | -2%
COC(=O)[C@]12CCCCC=C1N(CCC1=CCCCC1)C(=O)[C@H](CC(=O)NCC13CC4CC(CC(C4)C1)C3)C2 | 15% | -18%
CC(C)N(C)C1CCN(S(=O)(=O)c2ccc3[nH]c(=O)ccc3c2)CC1 | 0% | 8%
CCCC(=O)c1cc2c(cc1NC(=O)c1ccccc1F)OCCO2 | -4%&-3% | -5%&-7%
CCOC(=O)C1=CCC(c2cccc3ccccc23)N(S(=O)(=O)c2ccc(C)cc2)C1 (configuration not stated) | 35%[activator] | -5%
COc1ccccc1C#Cc1cnc2c(c1)C(=O)N([C@H](C)CO)C[C@H](C)[C@@H](CN(C)S(=O)(=O)c1cn(C)cn1)O2 | -10% | -4%
N#CCCN(C(=O)COC(=O)c1nc(Cl)ccc1Cl)c1ccccc1 | i | -10%
CNc1oc(-c2cccc3ccccc23)nc1C#N | . | ?
CCNc1c([N+](=O)[O-])ncn1C | . | -18%
O=C(NCC1CCCO1)c1c(O)c2c([nH]c1=O)CCCC2 (configuration not stated) | i | -9%
CCN1CCN(c2ccc(S(=O)(=O)N3CCOCC3)cc2NC(=O)C(C)Oc2ccc(Cl)cc2)CC1 (configuration not stated) | -26% | -14%
CC1CCc2c(nc3ncnn3c2Nc2ccc(OC(F)(F)F)cc2)C1 (configuration not stated) | . | ?
CCCC1N2CC3([N+](=O)[O-])CN1CC([N+](=O)[O-])(C2)C3(C)C (configuration not stated) | -14% | -29%
C=CCc1c(OC)ccc2ccc(=O)oc12 | -5%[1.46 µM] | -25%
CCc1ccc(-n2nnc(-c3nsc(NC(=O)c4ccccc4Cl)n3)c2C)cc1 | 3% | 2%
COc1ncnc2c1ncn2CCCN(C)Cc1ccco1 | i | -11%

# The final 2 compounds of the section before come first, to join the parts.
Structure | Vaccinia mCherry | VACV Venus inh
CCc1ccc(-n2nnc(-c3nsc(NC(=O)c4ccccc4Cl)n3)c2C)cc1 | 3% | 2%
COc1ncnc2c1ncn2CCCN(C)Cc1ccco1 | i | -11%
C=CCOc1ccc(C(=O)n2cc(C(=O)OC)c3ccccc32)cc1 | i | -20%
CN1CCC(N(C)C(=O)c2cc(S(=O)(=O)N3CCOCC3)ccc2Cl)CC1 | -22% | -15%
COc1ccccc1NC(=O)CSC1=Nc2ccccc2C2=NC(CCC(=O)NCc3ccco3)C(=O)N12 (configuration not stated) | -19% | -20%
COc1ccc(NC(=S)NC(=O)Cc2ccccc2)c(OC)c1 | -11% | -10%
CC(C)(C)n1nnnc1C(C1CC1)N1CCN(C/C=C/c2ccccc2)CC1 (configuration not stated) | 18% | -6%
Cc1ccc(-n2c(=O)c3c(cnn3C)n(CC(=O)Nc3cc(C)ccc3C)c2=O)cc1 | 2% | -1%
CCOc1ccc(NC(=O)CSc2nc3c(c(=O)n2-c2ccccc2OC)SCC3)cc1 | -17% | -21%
CCCOc1ccc(C(C)=O)cc1CSCCC#N | . | -4%
Cc1ccccc1CN1C(=O)Nc2ccccc2C(=O)N1C(C)(C)C | -5% | -8%
O=C(CCC(=O)OCc1ccc(C(=O)Oc2ccccc2)cc1)Nc1cccc2ccccc12 | . | -12%
O=C1NC(=O)C2(CCCCC2C2CCCCC2)N1 (configuration not stated) | i | -11%
Cc1cc(SCC(=O)NCCN2C(=O)CSC2=O)nc2ccccc12 | -23% | -18%
CC(C)N(C(=O)[C@H]1C[C@H](CC(=O)NCc2cccc(C(F)(F)F)c2)C(=O)N2CCc3c([nH]c4cc(CCC(=O)N(C)C)ccc34)[C@]12C)C(C)C | ? | ?
CCN1C/C(=C\c2cccc([N+](=O)[O-])c2)C(=O)/C(=C/c2cccc([N+](=O)[O-])c2)C1 | i | -7%
CC(C)CNC(=O)C1(C)CCCN1C(=O)c1csnn1 (configuration not stated) | -10% | 3%
Cc1ccc(C)c(S(=O)(=O)Nc2ccc(O)c(Sc3ncn[nH]3)c2)c1 | -18% | -3%
CCc1cc2c(cc3c(=O)n(CC(=O)NCCc4ccc(OC)c(OC)c4)ncn32)s1 | -7% | -8%
CC(=O)c1ccc(NC(=O)CN(C)S(=O)(=O)c2cccc3nsnc23)cc1 | 2% | -7%
Clc1ccc2nc(-c3ccccc3)c(CC3CCCCC3)n2c1 | 41%[activator] | -10%
COc1cc(OC)cc(C(=O)Nc2cc3c(cc2N2CCCC2)n(C)c(=O)c(=O)n3C)c1 | -13% | -7%

# Laid out differently: results already given.
# Every second line gives: Vaccinia mCherry | VACV Venus inh
- CC(C)CNC(=O)C1(C)CCCN1C(=O)c1csnn1 (configuration not stated)
  -10% | 3%
- CN1CCC(N(C)C(=O)c2cc(S(=O)(=O)N3CCOCC3)ccc2Cl)CC1
  -22% | -15%
- C=CCOc1ccc(C(=O)n2cc(C(=O)OC)c3ccccc32)cc1
  i | -20%

# (listing goes on)
Structure | Vaccinia mCherry | VACV Venus inh
Cc1ccc(S(=O)(=O)N2CCOCC2)cc1C(=O)OCC(=O)N(Cc1ccccc1)C(C)C | 0% | -19%
Cc1cccc(Nc2nc(Nc3cccc(C)c3)nc(N3CCOCC3)n2)c1 | -2%[7.34 µM] | -6%[7.34 µM]
S=c1[nH]nc(C2CCCCC2)n1/N=C/c1ccc(Cl)cc1 | -14% | ?
C=CCn1c(SCC(=O)Nc2nncs2)nnc1-c1ccco1 | -16% | -7%
CCOc1c(Br)cc(/C=N\NC(=O)c2ccccc2)cc1OC | i | 2%
CC1CC(C)(C)CC2(C1)NC(=O)N(CC(=O)Nc1ccc(N3CCCCC3)cc1)C2=O (configuration not stated) | -14% | -13%
COc1ccc(C)cc1NS(=O)(=O)c1c(C(=O)N2CCCCCC2)c(C)n(C)c1C | -20% | -12%
Cc1cc(C)cc(NC(=O)N2CCC(C(=O)c3ccc(F)cc3)CC2)c1 | -5% | -6%
Cc1cc(C)cc(C(=O)N(Cc2nc(-c3ccc(Cl)cc3)no2)C(C)C)c1 | -2% | 1%
Cc1ccc(/C=N/NC(=O)C2CC(=O)N(c3ccccc3)C2)s1 (configuration not stated) | -19% | -24%
Cc1ccc(-c2noc(CNC(=O)c3ccc(Br)o3)n2)cc1 | i | -10%
O=c1oc(Nc2ccc(F)cc2)nc2ccccc12 | i | -25%
OC(COc1ccccc1Br)CN1CCNCC1 (configuration not stated) | 0% | -19%
CCc1ccc(S(=O)(=O)c2nnn3c2nc(N2CCC(C(N)=O)CC2)c2cc(Cl)ccc23)cc1 | i | -12%
O=C(O)CCN1C(=O)c2ccc(NC(=O)CSc3ccccc3)cc2C1=O | -14% | -2%
CCOC(=O)c1sc(NC(=O)CN2CC(C)OC(C)C2)nc1C (configuration not stated) | i | -2%
CC(SCc1ccccc1)C(=O)NC1CCCC1 (configuration not stated) | -10% | -6%
CC(C)(C)n1nnnc1C(c1cccnc1)N1CCOCC1 (configuration not stated) | -26% | -9%
COc1ccccc1CCNS(=O)(=O)c1cc2c3c(c1)CCN3C(=O)CC2 | -12% | -7%
COc1ccc(C(C)=O)cc1COc1ncnc2ccccc12 | 9% | -2%
O=C(c1cccc(Cn2cccn2)c1)N1CCC(n2c(C3CCCO3)nc3cc(C(F)(F)F)ccc32)CC1 (configuration not stated) | -11% | 9%
CCOC(=O)c1oc2ccccc2c1COC(=O)CNC(=O)c1ccco1 | -5% | -21%
CC(C)(C)OC(=O)N1CCN(C(=O)OCC2c3ccccc3-c3ccccc32)CC1C(=O)O (configuration not stated) | i | -9%
Cc1ncoc1C(=O)NC1CCCc2c1cnn2-c1cc(F)cc(F)c1 (configuration not stated) | i | -14%
COC(=O)C(CO)NC(=O)C(C)NC(=O)CNC(=O)OCc1ccccc1 (configuration not stated) | 5% | -2%
CN(CCOC(=O)/C=C/c1ccco1)Cc1ccccc1 | -3% | -1%
CCOC(=O)N1CCC(NC(=O)CCN2C(=O)COc3ccccc32)CC1 | -26% | -6%
CCOc1cc(/C=N/NC(=O)c2ccccn2)ccc1OC(=O)c1ccc(F)cc1 | -10% | -9%
Cc1ccc2c(c1)C(c1ccc(F)cc1)N(C(=O)COc1ccc(Cl)cc1Cl)CC(=O)N2 (configuration not stated) | -18% | -22%
O=C(O)C1CCN(C(=O)NC2CCCCC2)CC1 | . | -4%
CCc1nnc(NC(=O)c2cc(-c3ccncc3)nc3ccccc23)s1 | -2%[7.34 µM] | 0%[7.34 µM]
Cc1ccc(NC(=O)CSC2=NN3CCCC(=O)N=C3S2)c(C)c1 | i | -28%
CC1CCCN(C(=O)c2ccc3c(c2NCCO)C(=O)c2ccccc2C3=O)C1 (configuration not stated) | -24% | 9%
CCOc1cc(N2CCOCC2)c(OCC)cc1NC(=O)c1cc(C)nc2ccccc12 | -14% | -8%
CC(C)(C)C(=O)NC(=S)Nc1cccc(C(=O)O)c1 | -15% | -9%
CC(C)(C)CC(=O)NC(=S)Nc1ccccc1[N+](=O)[O-] | i | -13%
O=C(Nc1cccc(S(=O)(=O)NC2=NCCCCC2)c1)c1ccc(Cl)cc1 | -15% | -24%
CCOC(=O)Cc1csc(NC(=O)COc2ccc(N(C)S(=O)(=O)c3cccs3)cc2)n1 | . | -19%
COc1ccc(CNC(=O)CS(=O)Cc2nc(-c3ccc(C)cc3)oc2C)cc1 (configuration not stated) | ? | ?
O=c1n(-c2cccc(Cl)c2)c(=O)n2n1CCC2 | i | 2%
Cc1ccc(C)c(N2CCN(C(=O)c3ccc(CS(=O)Cc4ccc(Cl)cc4)o3)CC2)c1 (configuration not stated) | ? | ?
O=C(NNC(=S)NC(=O)c1ccccc1)c1ccc(O)cc1 | -30% | -16%
CC(On1nnc2ccccc21)C(=O)N1CCN(Cc2ccccc2)CC1 (configuration not stated) | i | -4%
O=C(CSc1nnc(-c2ccncc2)o1)N1CCCC1 | -10% | 3%
O=C1C2CCCCN2C(=O)N1CCN1CCN(c2ccc(F)cc2)CC1 (configuration not stated) | -1% | -13%
CNc1nc(Nc2ccccc2)nc(OCC(F)(F)F)n1 | -18% | -14%
O=C(Nc1ccc(Cn2cccn2)cc1)c1ccc(COc2cccc(Br)c2)cc1 | ? | ?
C=CCOc1ccc(C(c2c(O)nc(SC)[nH]c2=O)c2c(O)nc(SC)[nH]c2=O)cc1 | i | -8%
C(=Nc1ccc(Nc2ccccc2)cc1)c1ccc2ccccc2c1 | -7% | -19%
CSc1nnc(C2CCN(CC(=O)Nc3ccccc3N3CCOCC3)CC2)n1C | 18% | -2%
